# Screening data as filed in PubChem.
# NPYLR7 agonist – mosquito NPYLR7 agonism | 270,000 tested, 0.15% active | activation, % at 10 µM | HEK293T NPYLR7/Galpha15, GCaMP6s calcium fluorescence; in the data active means activation above about 40%;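 further: 0% = vehicle and 100% = reference agonist at the receptor; some compounds past the cut are filed as inactive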
# NPYLR7 agonist max-min – further read-out of NPYLR7 agonist, marked with its call; activation, %; measured here: Max-Min RFU normalised activation; some inactives read as strong as hits;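 span of the calcium signal over five minutes; 0% = vehicle and 100% = native peptide agonist; compound fluorescence can raise it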
# * = called active by the depositor; & = joins results of further samples. An excerpt, so the mix of outcomes need not match the whole.
# Below each compound: NPYLR7 agonist	NPYLR7 agonist max-min
CC1(C)CC2C1CC[C@]1(C)CCC3C(C(=O)O)CC(=O)O[C@@]32C1 (some centres undefined)
→ -9	-11
O=C(CN1CCOc2ccccc2C1)N1CCC2(CCCO2)CC1
→ 10	5
Cc1nnc(C(C)N2CCN(C(=O)c3cccc4ccccc34)CC2)o1 (centres undefined)
→ -1	-2
O=C1/C(=C/c2ccc3c(c2)OCO3)Oc2c1ccc1c2CN(CC2CCCO2)CO1 (centres undefined)
→ 83*	82*
COc1ncc(C(=O)N2CCC(O)(c3ccc(C)cn3)CC2)cn1
→ -2	2
O=C1NC2(CCCCC2)C(=O)N1CN1CCCC1c1ccc2c(c1)OCCCO2 (centres undefined)
→ 1	4
Cc1oc(-c2ccccc2Cl)cc1C(=O)N1CCNC(=O)CC1
→ 3	-1
Cc1cc(Br)ccc1NS(=O)(=O)c1cnc[nH]1
→ 0	-2
CC(C)NC(=O)c1nnc2n1CCN(Cc1ccc3ccccc3c1)C2
→ 8	1
COc1ccc(C(=O)N2C[C@H]3C[C@H](C2)[C@@H]2CCCC(=O)N2C3)cc1OC
→ -2	-5
COc1ccc(CN(C)C(=O)NCC2CC=CCC2)cc1 (centres undefined)
→ 6	5
O=C(CSc1ncnc2sccc12)NNC(=O)c1cccs1
→ -2	-3
Cc1nc2scc(-c3cccc(NS(C)(=O)=O)c3)n2c(=O)c1C
→ -6	-5
CCc1ccc(NC(=O)CSc2nc(=O)n(CCCN(C)C)c3c2CCCC3)cc1
→ 4	4
O=S(=O)(Nc1cccc(N2CCC(NCc3ccncc3)CC2)c1)c1ccc(F)cc1
→ 10	4
COc1cc(C=NCC2(N3CCCCC3)CCCCC2)ccc1OCC#N
→ 19	14
Cc1c(C(=O)O)nnn1-c1ccccc1
→ -2	-3
COc1cn(CC(=O)NC(C)(C)C)c(CN2CCOCC2)cc1=O
→ 3	0
Cc1nc2c(c(=O)[nH]1)CCN(Cc1cc3n(n1)CCNC3)CC2
→ 3	4
CCc1ccc(Cl)c(CC)c1NC(=O)c1ccc(=O)n(C)n1
→ 10	12
C=C1C(C(=O)NCC2CCCO2)C1C(=O)NCC1CCCO1 (centres undefined)
→ -9	-9
COC(=O)c1cnn(-c2nc(OC)cc(OC)n2)c1C
→ 5	3
CC(C)Nc1ccc(C(=O)NC23CC4CC(CC(C4)C2)C3)cn1
→ -1	-11
CC(CNC1CCSCC1)N(C)c1ccccc1 (centres undefined)
→ 4	1
CCc1[nH]n(C(C)(C)C)c(=O)c1C1=C(N2CCCC2)C(=O)N(Cc2ccc(F)cc2)C1=O
→ -2	0
Cc1ccc(C)c(OCC(=O)N2CCCCC2c2cccnc2)c1C (centres undefined)
→ -2	-9
COc1ccc(OC)c2sc(N(Cc3ccccc3)C(=O)c3ccc([N+](=O)[O-])o3)nc12
→ 0	-7
O=C(Cn1c(C(F)(F)F)nc2ccccc21)Nc1ccc2c(c1)CCC(=O)N2
→ -1	-2
Cn1nc(-c2ccccc2)c2c1NC(=O)CC2COCc1ccccc1 (centres undefined)
→ 14	5
COc1ccc(CN(Cc2ccc(F)cc2)C(=O)c2ccccc2OC)cc1OCc1nc(CO)cs1
→ -1	6
CC(C)OC(=NCc1ccc2c(c1)OCO2)NC(=O)c1cccs1
→ -5	6
COC(=O)c1ccc(CN2C(=O)C(Cc3cccc(F)c3)ON=C2C)o1 (centres undefined)
→ 10	3
Cc1nc2c(=O)n(Cc3ccc(Cl)cc3)nc(-c3cccs3)c2s1
→ -1	-4
CC1CC(C(N)=O)c2ccccc2N1C(=O)c1cnc(C(C)(C)C)s1 (centres undefined)
→ -23	-25
CCc1sc(C(=O)OCC(=O)N(C)CC(=O)Nc2ccc(C)cc2)cc1C
→ 0	-3
Cc1ccccc1OCc1n[nH]c(=S)n1C(C)C
→ 6	5
CC1(c2ccccc2)OC(=O)C(C#N)C12CCCCC2 (centres undefined)
→ 18	14
CC1=NN(c2ccc(C(=O)OC(C)C(=O)NC(=O)NCC(C)C)cc2)CC1 (centres undefined)
→ -1	-3
OC(CSc1nc2ccccc2[nH]1)c1ccc(Cl)cc1 (centres undefined)
→ 2	8
c1ncn(Cc2nnc(SCCC3CCCCC3)o2)n1
→ 5	5
Cc1nn(-c2ccc(F)cc2)c(C)c1C(=O)N1CCCC2(CC1)CNC(=O)O2 (centres undefined)
→ 5	5
O=C(Cc1ccccc1O)N1CCc2cc(Br)ccc21
→ -25	-23
C=CCNC(=S)N(C)C1CCC2(CC1)OCC(C)(C)CO2
→ -4	-12
CC(C)SC(NC(=O)OCc1ccccc1)C(=O)Nc1ccc(-c2ccccc2)cc1 (centres undefined)
→ -9	-18
COc1ccccc1NC(=O)COc1ccc2c(c1)OCO2
→ -12	-5
COCCn1c(N2CCCCC2)nc2c1c(=O)[nH]c(=O)n2C
→ 0	-2
CC1CN(c2ccccc2)c2nc3c(c(=O)n(CCN4CCCCC4)c(=O)n3C)n2C1 (centres undefined)
→ 3	4
Cc1ncoc1C(=O)N1CCC(=O)N(Cc2ccc(F)cc2)C(C(C)C)C1 (centres undefined)
→ 7	-1
COc1ccc(F)c(CN2CCCC(Cn3ccnc3)C2)c1 (centres undefined)
→ -4	-13
COc1ccc(-c2noc(CN(C)Cc3nccn3C)n2)cc1
→ 23	11
O=C(c1cnn(C(=O)C2CC2)c1)c1cc(Cl)ccc1O
→ -1	2
Cc1nn(S(=O)(=O)c2ccc([N+](=O)[O-])cc2)c(C)c1Sc1ccccc1
→ 1	6
COC(=O)c1ccc(COC(CN2CCN(S(=O)(=O)c3c(C)noc3C)CC2)c2cccc(OC)c2)cc1 (centres undefined)
→ 27	11
COC(=O)c1ccc(NC(=O)c2cc(=O)c(OC)co2)cc1
→ 10	4
CCCC1CCN([C@H]2[C@H](OC)C[C@@H]3C[C@H](COC)OC[C@]32O)CC1
→ 2	4
COc1cc(C(=O)NNC(=O)CCl)cc(OC)c1OC
→ -4	-11
COc1ccc(CN2CCC2(C)C(=O)NCCNC(C)=O)c2ccccc12 (centres undefined)
→ 13	10
O=C(c1ccccc1)N(Cc1ccccc1)[C@@H]1C[C@H]2CCOC[C@@]2(c2ccccc2)C1
→ 3	13
Cc1cc(Oc2ccc3c(c2)OCO3)nc(SCc2ccccc2C#N)n1
→ -11	-2
CCNC(=O)C1Cc2ccccc2N1C(=O)NCc1cccs1 (centres undefined)
→ -10	-17

# Laid out differently: results already given.
compound,NPYLR7 agonist,NPYLR7 agonist max-min
C=CCNC(=S)N(C)C1CCC2(CC1)OCC(C)(C)CO2,-4,-12
CC(C)SC(NC(=O)OCc1ccccc1)C(=O)Nc1ccc(-c2ccccc2)cc1 (centres undefined),-9,-18
COc1ccccc1NC(=O)COc1ccc2c(c1)OCO2,-12,-5
COCCn1c(N2CCCCC2)nc2c1c(=O)[nH]c(=O)n2C,0,-2
CC1CN(c2ccccc2)c2nc3c(c(=O)n(CCN4CCCCC4)c(=O)n3C)n2C1 (centres undefined),3,4
Cc1ncoc1C(=O)N1CCC(=O)N(Cc2ccc(F)cc2)C(C(C)C)C1 (centres undefined),7,-1
COc1ccc(F)c(CN2CCCC(Cn3ccnc3)C2)c1 (centres undefined),-4,-13

# Additional results follow:
# Below each compound: NPYLR7 agonist	NPYLR7 agonist max-min
O=C(NCCn1nc(-c2ccncc2)ccc1=O)Nc1ccc(F)cc1
→ 11	5
Cn1c(=O)n(CCSc2ccc(Cl)cc2)c(=O)c2ccccc21
→ 1	6
Cc1ccccc1OCC(=O)N=Nc1c(O)n(C)c2ccccc12
→ -4	-6
COc1ccc(Br)cc1C(N)=S
→ -5	-7
CC(C)C[C@@H](N)C(=O)N(C)Cc1cc(-c2ccccc2)no1
→ 9	5
Cc1c(OCC(=O)OC(C)C)ccc2c(-c3ccccc3)cc(=O)oc12
→ -5	-6
Cc1ccccc1NC(=O)CSc1nc(=O)n2ccccc2n1
→ 0	-5
COCCN1C(=O)CC2(C1=O)C(=O)N(CCCOc1ccc(OC)cc1)c1ccc(Cl)cc12 (centres undefined)
→ -15	-20
Fc1ccc(Cc2nc(CSc3cccc4ccccc34)cs2)c(Cl)c1
→ 2	-1
CC(=O)Nc1cccc(C(=O)CSc2nnc(Cn3ccc(=O)[nH]c3=O)o2)c1
→ -4	3
O=C1CN(S(=O)(=O)c2ccccc2)CC(O)CN1CCOc1ccccc1 (centres undefined)
→ 22	30
O=C(CCc1ccc2c(c1)OCO2)N[C@@H]1c2ccccc2C2(CCNCC2)[C@H]1O
→ 6	1
CN(C(=O)c1ccc(NC2CC2)nc1)C1Cc2ccccc2C1
→ 0	-4
CC(C)CNC(=O)c1cccc(Nc2c(OC(C)C)cnn(-c3ccccc3)c2=O)c1
→ 0	1
Cc1cnc(CNC(=O)c2c(C)noc2-c2ccccc2Cl)cn1
→ 8	10
COc1cc(CN2CCn3nc(C(=O)NCc4cccnc4)cc3C2=O)cc(OC)c1
→ 1	10
Cc1nc(-c2ccccc2)sc1CC(=O)Nc1ccc(Cl)nc1
→ 1	-2
CC(=O)Nc1nc(C(=O)NC2CCCc3ccccc32)cs1 (centres undefined)
→ -8	-8
Cc1cccc(C(=O)Nc2nc(C)c(-c3n[nH]c(=S)n3C)s2)c1
→ 12	14
Cc1occc1C(=O)Nc1cccc(-c2nn[nH]n2)c1
→ 7	5
COc1cc(Br)c(S(=O)(=O)Nc2ccc(N3CCCC3=O)cc2)cc1OC
→ -3	-5
CC(NC(=O)C1(c2ccccc2)CCC1)C(=O)N1CCS(=O)(=O)CC1 (centres undefined)
→ 7	7
O=C(c1ccco1)N(Cc1ccccc1)[C@@H]1C[C@@H]2COCC[C@]2(c2ccccc2)C1
→ 19	24
Cc1ccc(S(=O)(=O)N2CCC3(CC2)C(=O)N(CC(=O)NCCc2ccccn2)CN3c2ccccc2)cc1
→ -4	8
Cc1nn(-c2ccccc2)c2nc(C(Cl)(Cl)Cl)[nH]c(=O)c12
→ 2	0
Cc1cc(NC(=O)C2CC2)n(-c2ncnc3c2cnn3-c2cccc(C)c2C)n1
→ 10	9
COc1cccc(-c2nnc(NC(=O)C(C)N)s2)c1 (centres undefined)
→ -4	-10
CC(C)(C)c1cccc(OS(=O)(=O)c2ccc3[nH]c(=O)[nH]c(=O)c3c2)c1
→ 7	1
Nc1nc(C(F)(F)F)nn1C(=O)c1cnn(-c2cccc(Cl)c2)c1
→ 5	2
CS(=O)(=O)Nc1ccc(C(=O)N2CCN(C(=O)C3CC3)CC2)cc1
→ -1	-1
CSc1nc(=O)cc(N)n1-c1cccc(C(F)(F)F)c1
→ 1	0
CCOc1nn(CC)cc1-c1nnc(SCCOC)n1CC
→ 11	10
Cc1ccc2nc(CSCc3ccc(Cl)cc3Cl)oc(=O)c2c1
→ 0	7
COc1ccc(-c2cc(C(=O)N3CCC(Cc4ccccc4)CC3)n3nc(C(C)(C)C)cc3n2)cc1
→ -8&-12	0&4
CN(C)Cc1cc(CN(C)C)c(O)c(CN(C)C)c1
→ -3	-2
Cc1ccc(C(N)=O)c(OCc2c(Cl)ccc3cccnc23)c1
→ -6	-7
Cc1ncoc1C(=O)N1CCC(CCC(=O)Nc2ccc3c(c2)OCCO3)CC1
→ 6	2
O=C(CCc1ccccc1)Nc1ccnn1C1CCN(Cc2nccs2)CC1
→ 11	6
O=C(NNS(=O)(=O)c1ccc(Cl)s1)c1ccccc1Cl
→ -2	-5
Cc1cc(C)n(CC(C)n2ccnc2-c2coc(-c3ccccc3)n2)n1 (centres undefined)
→ 4	1
Nc1cc(C(F)(F)F)ccc1Oc1ccc(Br)cc1
→ 3	2
CNC(=O)c1ccc(CN(C)Cn2cc(C)n(-c3ccc(Cl)cc3)c2=O)cc1
→ 3	2
CC(C)S(=O)(=O)Oc1ccc(CN(Cc2ccco2)C(=O)c2cccc(F)c2)cc1
→ 10	12
CC1CCC(NC(=O)c2cc3cccnc3n(C(C)C)c2=O)CC1 (centres undefined)
→ -8	-12
Cc1nc2c(=O)n(CC(=O)N3CCCc4ccccc43)nc(-c3ccc(F)cc3)c2s1
→ 4	0
CC(C)(C(=O)N1CCC(C(N)=O)CC1)c1cccc(C(F)(F)F)c1
→ -21	-19
O=C(N[C@@H]1CCCC[C@H]1N1CCOCC1)c1csc(=Nc2ccccc2)n1Cc1cccs1
→ 7	9
O=C(C1CCCC1)N1CCN(Cc2ccc(-c3noc(-c4cccs4)n3)cc2)CC1
→ 5	1
COc1ccc(-c2cccc(-c3cccc(NC(=O)N4c5ccccc5Sc5ccccc54)c3)n2)cc1
→ 3	-1
Cc1csc(-c2ccc(C(=O)NC(C)(C)c3ccc4c(c3)OCO4)cc2)n1
→ 0	-4
O=C(CCl)N1CCN(c2ncc(C(F)(F)F)cc2Cl)CC1
→ 3	1
CCCCCCCCCCCCCC(=O)Nc1ccc(-n2nc(OC)nc2-c2ccc(C(F)(F)F)cc2)cc1
→ 9	25
COc1cccc(-c2cc(C(=O)N3CCN(Cc4ccccc4)CC3)n3nc(C(C)(C)C)cc3n2)c1
→ 11	11
CCN(C(=O)c1ccc(C#N)cc1)C(C)C(=O)Nc1ccc(C)cc1 (centres undefined)
→ -6&3	-8&2
CCc1noc(CN(CC)C(=O)CC2C(=O)Nc3cc(C)cc(C)c32)n1 (centres undefined)
→ 5	4
O=C(CSc1ncnc2c1nnn2-c1ccccc1)NCCc1ccccc1
→ 0	11
Cc1cc(C)n(-c2nc3c(c(=O)n2CC(=O)Nc2cccc(C)c2C)CCCC3)n1
→ -2	-4
COc1cccc2ccc(CN3CCC4(CC3)C(=O)N(Cc3cccnc3)C(=O)N4C)nc12
→ 17	7
NCCc1csc2nc(-c3ccccc3F)nn12
→ 8	5
COc1ccccc1-c1cc(C(=O)N2CCN(c3ccccc3F)CC2)nc2cc(-c3ccccc3)nn12
→ 10	7
CCCS(=O)(=O)NC(=O)c1cc2c(C(C)C)nn(C)c2s1
→ -2	-4
C=C(Br)CN1C[C@H](O)C[C@H]1C(=O)OC
→ 1	-4
CCCCN(C(=O)c1ccc(C)c([N+](=O)[O-])c1)C1CCS(=O)(=O)C1 (centres undefined)
→ 1	1
